NOMO-1 viab: STK33 inhibitor candidate reducing NOMO-1 cell viability | AID 2330 | hit rate 7.5% among 37,000 | NOMO-1 AML viability, CellTiter-Glo luminescence, 72 h | inhibition, % (no concentration beside the values);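 active = most replicates above 80%; inconclusive = exactly half above 80%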;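 note: wells of about 30 µL received 25 nL stock; 0% = median of vehicle wells and 100% = reference inhibitor level; the first replicate is given; inactives centre near 10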
An asterisk follows results filed as active; ? = inconclusive. Some of the compounds tested, so the mix of outcomes need not match the whole.

SMILES	NOMO-1 viab
Cc1ccc(F)cc1NC(=O)CCCSc1nc(-c2ccco2)cc(C(F)(F)F)n1	23
COc1ccc(Cl)cc1NC(=O)CSc1nc2sccc2c(=O)[nH]1	6
COc1ccc(NC(=O)N(C)C[C@H]2Oc3ccc(NS(=O)(=O)c4ccc(Cl)cc4)cc3C(=O)N([C@@H](C)CO)C[C@H]2C)cc1	21
Cc1ccc(S(=O)(=O)Nc2cc(Cl)c(O)c(Sc3nc(C)cc(C)n3)c2)cc1	-17
C[C@@H]1CN([C@H](C)CO)C(=O)c2cc(NC(=O)CCCN(C)C)ccc2O[C@@H]1CN(C)Cc1ccc(-c2ccccc2)cc1	-1
COc1ccc(OC)c(NC(=O)c2ccc(C)c(S(=O)(=O)Nc3ccc(C)cc3)c2)c1	103*
Cc1noc(C)c1NC(=O)N(C)C[C@@H]1Oc2c(NS(=O)(=O)c3cn(C)cn3)cccc2C(=O)N([C@H](C)CO)C[C@H]1C	21
C1=C(c2cccs2)CC(c2cccs2)=NN=C1c1cccs1	41
Cc1nc(SCC(=O)Nc2ccc([N+](=O)[O-])cc2)[nH]c(=O)c1C	18
COc1cccc(NC(=O)CNC(=O)c2ccco2)c1	35
COc1ccc(S(=O)(=O)NCCc2ccc(OC)c(OC)c2)cc1C	-17
C[C@@H]1CN([C@@H](C)CO)C(=O)Cc2cc(NC(=O)Nc3ccc4c(c3)OCO4)ccc2O[C@@H]1CN(C)Cc1ccncc1	31
CCc1ccccc1NC(=O)Cn1cnc2scc(-c3ccc(OC)cc3)c2c1=O	28
C[C@@H]1CN([C@@H](C)CO)C(=O)c2cc(NS(=O)(=O)c3ccc(F)cc3)ccc2O[C@@H]1CN(C)C(=O)Nc1cccc2ccccc12	22
Cc1c(C)c(C)c(CSc2ccccn2)c(C)c1C	33
Cc1noc(C)c1NC(=O)Nc1cccc2c1O[C@@H](CN(C)Cc1ccc(Oc3ccccc3)cc1)[C@@H](C)CN([C@@H](C)CO)C2=O	12
C[C@@H]1CN([C@H](C)CO)C(=O)c2cc(NC(=O)Cc3ccccc3)ccc2O[C@H]1CN(C)C(=O)Nc1ccc2c(c1)OCO2	8
COc1ccc(NC(=O)Nc2ccc3c(c2)C(=O)N([C@H](C)CO)C[C@@H](C)[C@@H](CN(C)C(=O)Nc2ccc(OC)cc2)O3)cc1	3
CC(C)NC(=O)Nc1ccc2c(c1)CC(=O)N([C@@H](C)CO)C[C@@H](C)[C@@H](CN(C)C(=O)Nc1ccccc1)O2	-7
O=C(COC(=O)c1ccccc1NCc1ccco1)c1ccc(Cl)cc1	24
C[C@@H]1CN([C@H](C)CO)C(=O)Cc2cc(N(C)C)ccc2O[C@@H]1CN(C)Cc1ccc(Oc2ccccc2)cc1	118*
CC1(OC(=O)/C=C/c2ccccc2)CC(O)C2C=COC(OC3OC(CO)C(O)C(O)C3O)C21 (stereo unspecified)	1
CC(C)NC(=O)N(C)C[C@H]1Oc2ccc(NS(=O)(=O)c3ccc(F)cc3)cc2C(=O)N([C@@H](C)CO)C[C@@H]1C	15
C[C@H](CO)N1C[C@H](C)[C@H](CN(C)C(=O)NC2CCCCC2)Oc2c(NC(=O)Nc3cccc4ccccc34)cccc2C1=O	97*
COc1ccc(-c2csc3ncn(CC(N)=O)c(=O)c23)cc1OC	-1
SMILES	NOMO-1 viab
C[C@@H]1CN([C@@H](C)CO)C(=O)c2cccc(NC(=O)c3ccc(-c4nccs4)cc3)c2O[C@@H]1CN(C)C(=O)Nc1ccccc1	27
CC(C)(C)S(=O)(=O)c1cnc(-c2cnccn2)nc1N	-11
COc1ccc(OCC(=O)Nc2cc(OC)ccc2NC(=O)c2ccco2)cc1	-13
C[C@@H]1CN([C@H](C)CO)C(=O)c2cc(NC(=O)Cc3cn(C)c4ccccc34)ccc2O[C@H]1CN(C)Cc1ccc2c(c1)OCO2	24
C[C@@H]1CN([C@H](C)CO)C(=O)Cc2cc(NC(=O)CCC(F)(F)F)ccc2O[C@@H]1CN(C)CC1CCCCC1	1
COC(=O)CCN(C(=O)c1cccc(OC(C)=O)c1)c1ccccn1	35
Cc1noc(C)c1NC(=O)Nc1cccc2c1O[C@H](CN(C)S(=O)(=O)c1ccccc1)[C@H](C)CN([C@H](C)CO)C2=O	4
CC(C)NC(=O)Nc1ccc2c(c1)C(=O)N([C@H](C)CO)C[C@@H](C)[C@@H](CN(C)Cc1ccc(C(=O)O)cc1)O2	-7
Nc1nnc(SCC(=O)Nc2ccc(Cl)cc2O)s1	15
COc1ccc(NC(=O)N(C)C[C@@H]2Oc3ccc(NC(=O)Nc4ccc5c(c4)OCO5)cc3CC(=O)N([C@@H](C)CO)C[C@@H]2C)cc1	3
C[C@@H]1CN([C@H](C)CO)C(=O)c2cccc(NC(=O)C3CCCCC3)c2O[C@H]1CN(C)S(=O)(=O)c1ccc(F)cc1	16
Cc1sc2nc(SCC(=O)Nc3ccccc3C(F)(F)F)nc(N)c2c1C	?
C[C@H](CO)N1C[C@H](C)[C@@H](CN(C)C(=O)Nc2ccc(F)cc2)Oc2ccc(NC(=O)Nc3ccc4c(c3)OCO4)cc2C1=O	-3
C[C@@H]1CN([C@@H](C)CO)C(=O)c2cccc(NC(=O)Nc3ccc(F)cc3)c2O[C@@H]1CN(C)Cc1ccc(C(F)(F)F)cc1	88*
Cc1ccc(N(CC(=O)Nc2ccc(I)cc2C)S(C)(=O)=O)cc1C	17
C[C@@H]1CN([C@H](C)CO)C(=O)Cc2cc(NC(=O)Nc3ccc(C(F)(F)F)cc3)ccc2O[C@H]1CN(C)CC1CC1	37
Cc1ccc(S(=O)(=O)Nc2cccc3c2O[C@H](CN(C)S(=O)(=O)c2cn(C)cn2)[C@H](C)CN([C@H](C)CO)C3=O)cc1	17
Cc1ccc(S(=O)(=O)Nc2ccc3c(c2)CC(=O)N([C@H](C)CO)C[C@@H](C)[C@@H](CN(C)C)O3)cc1	9
COc1ccc(OC)c(S(=O)(=O)c2ccc(Br)cc2)c1	25
COc1ccc(NC(=O)N(C)C[C@H]2Oc3c(NC(=O)Nc4cccc5ccccc45)cccc3C(=O)N([C@H](C)CO)C[C@@H]2C)cc1	18
C[C@H](CO)N1C[C@H](C)[C@H](CN(C)S(=O)(=O)c2ccc(F)cc2)Oc2ccc(NC(=O)C3CCCCC3)cc2C1=O	-6
CS(=O)(=O)N(CC(=O)O)c1cccc(Cl)c1	6
CC(Oc1ccc(Cl)cc1Cl)C(=O)Nc1cccc(-c2nc3ccccc3o2)c1 (stereo unspecified)	10
Cc1ccc(OCCSc2nc(C)cc(=O)[nH]2)c(I)c1	5
CN(CC(=O)Nc1ccc(Cl)cc1)S(=O)(=O)c1ccccc1	0
SMILES	NOMO-1 viab
C[C@@H]1CN([C@H](C)CO)C(=O)Cc2cc(NC(=O)CCCCCC(=O)Nc3ccccc3N)ccc2O[C@H]1CN(C)S(=O)(=O)c1cn(C)cn1	-5
O=C(NCc1ccco1)c1cc([N+](=O)[O-])ccc1Sc1nc2ccccc2[nH]1	2
CC1(C)CC(=O)C2=C(C1)NC1=C(C(=O)c3ccccc31)C2c1ccc(OC(=O)CN2C(=O)C3CCCCC3C2=O)cc1 (stereo unspecified)	13
COc1ccc(S(=O)(=O)N(C)C[C@H]2Oc3ccc(NC(=O)Cc4ccccc4)cc3C(=O)N([C@@H](C)CO)C[C@H]2C)cc1	18
Cc1cccc(OCCn2c(C(C)O)nc3ccccc32)c1 (stereo unspecified)	18
C[C@@H]1CN([C@@H](C)CO)C(=O)Cc2cc(NC(=O)NC3CCCCC3)ccc2O[C@@H]1CN(C)C(=O)Nc1ccc(F)cc1	-9
Cc1noc(C)c1NC(=O)N(C)C[C@@H]1Oc2ccc(NC(=O)CCCCCC(=O)Nc3ccccc3N)cc2C(=O)N([C@H](C)CO)C[C@@H]1C	-10
COc1cc(Cl)cc(C(=O)O)c1OCC(=O)O	-9
COc1ccc2ccccc2c1-c1c(OC)ccc2ccccc12	38
C[C@@H]1CN([C@H](C)CO)C(=O)c2cccc(NC(=O)NC3CCCCC3)c2O[C@@H]1CN(C)S(=O)(=O)c1ccccc1	10
CCN(CC(=O)O)S(=O)(=O)c1ccc(Cl)cc1	21
Cc1cccc(OCC(=O)NC(=S)Nc2ccc(C)cc2O)c1	102*
C[C@@H]1CN([C@@H](C)CO)C(=O)c2cccc(NS(C)(=O)=O)c2O[C@H]1CN(C)C(=O)Nc1cccc2ccccc12	-1
COC(=O)c1c(O)cc(C)cc1Oc1c(O)cc(OC)cc1CO	16
COc1cc(S(=O)(=O)NCc2ccccn2)ccc1Br	-15
C[C@H]1CN([C@@H](C)CO)C(=O)c2cc(NC(=O)CCCCCC(=O)Nc3ccccc3N)ccc2O[C@@H]1CN(C)C(=O)Nc1cccc2ccccc12	4
O=C(CCCCn1cnc2ccccc21)c1ccccc1	46
C[C@H](CO)N1C[C@H](C)[C@@H](CN(C)Cc2ccc(C(F)(F)F)cc2)Oc2c(NS(=O)(=O)c3cccs3)cccc2C1=O	6
C[C@@H]1CN([C@@H](C)CO)C(=O)Cc2cc(NS(=O)(=O)c3cccs3)ccc2O[C@@H]1CN(C)Cc1ccc(-c2ccccc2)cc1	53
CC1=CS(=O)(=O)CC1SC(=S)NC(C)C (stereo unspecified)	?
CCNS(=O)(=O)c1ccc(NC(=O)c2cc(-c3ccccn3)nc3c(C)c(C)ccc23)cc1	25
O=C(Nc1ccc(Cl)cc1)c1sc2ccccc2c1Cl	7
C[C@@H]1CN([C@H](C)CO)C(=O)Cc2cc(NC(=O)CCCCCC(=O)Nc3ccccc3N)ccc2O[C@H]1CN(C)CC1CC1	51
C[C@H]1CN([C@@H](C)CO)C(=O)Cc2cc(NC(=O)Nc3ccc(F)cc3)ccc2O[C@@H]1CN(C)C(=O)Nc1ccc2c(c1)OCO2	14
C[C@H](CO)N1C[C@H](C)[C@H](CN(C)Cc2ccc(-c3ccccc3)cc2)Oc2ccc(NC(=O)C3CC3)cc2CC1=O	67

A draw from above in order of count of non-hydrogen atoms, highest first:
SMILES	NOMO-1 viab
C[C@H]1CN([C@@H](C)CO)C(=O)c2cc(NC(=O)CCCCCC(=O)Nc3ccccc3N)ccc2O[C@@H]1CN(C)C(=O)Nc1cccc2ccccc12	4
C[C@H]1CN([C@@H](C)CO)C(=O)Cc2cc(NC(=O)Nc3ccc(F)cc3)ccc2O[C@@H]1CN(C)C(=O)Nc1ccc2c(c1)OCO2	14
C[C@@H]1CN([C@@H](C)CO)C(=O)Cc2cc(NS(=O)(=O)c3cccs3)ccc2O[C@@H]1CN(C)Cc1ccc(-c2ccccc2)cc1	53
COc1ccc(S(=O)(=O)N(C)C[C@H]2Oc3ccc(NC(=O)Cc4ccccc4)cc3C(=O)N([C@@H](C)CO)C[C@H]2C)cc1	18
C[C@H](CO)N1C[C@H](C)[C@H](CN(C)Cc2ccc(-c3ccccc3)cc2)Oc2ccc(NC(=O)C3CC3)cc2CC1=O	67
C[C@@H]1CN([C@H](C)CO)C(=O)c2cccc(NC(=O)NC3CCCCC3)c2O[C@@H]1CN(C)S(=O)(=O)c1ccccc1	10
CCNS(=O)(=O)c1ccc(NC(=O)c2cc(-c3ccccn3)nc3c(C)c(C)ccc23)cc1	25
COC(=O)c1c(O)cc(C)cc1Oc1c(O)cc(OC)cc1CO	16
O=C(CCCCn1cnc2ccccc21)c1ccccc1	46
COc1cc(S(=O)(=O)NCc2ccccn2)ccc1Br	-15
COc1cc(Cl)cc(C(=O)O)c1OCC(=O)O	-9
CC1=CS(=O)(=O)CC1SC(=S)NC(C)C (stereo unspecified)	?

More compounds follow.
SMILES	NOMO-1 viab
COc1ccc(Cn2c3ccc(Br)cc3c3nc4ccccc4nc32)cc1OC	25
CCOCCCNc1nc2c([nH]1)c(=O)n(C)c(=O)n2C	8
COc1ccc(NC(=O)N(C)C[C@H]2Oc3ccc(NS(=O)(=O)c4cccs4)cc3C(=O)N([C@@H](C)CO)C[C@H]2C)cc1	3
COc1ccc(S(=O)(=O)Nc2ccc3c(c2)CC(=O)N([C@H](C)CO)C[C@@H](C)[C@H](CN(C)CC2CCCCC2)O3)cc1	57
CC1OC(OC(=O)C2=CC3(O)CC(C)(C)CC34C(C)CCC24)C(O)C(O)C1O (stereo unspecified)	-7
C[C@H]1CN([C@@H](C)CO)C(=O)Cc2cc(NS(=O)(=O)c3ccc(Cl)cc3)ccc2O[C@@H]1CN(C)CC1CCCCC1	120*
C[C@@H]1CN([C@H](C)CO)C(=O)c2cccc(NC(=O)C3CCOCC3)c2O[C@H]1CN(C)Cc1ccc2c(c1)OCO2	6
CN(C)CCNc1oc(COc2ccc(F)cc2)nc1C#N	-3
Cc1cc(NC(=O)C(=O)NCc2cccnc2)ccc1Br	3
C[C@@H]1CN([C@H](C)CO)C(=O)Cc2cc(NC(=O)CCN3CCOCC3)ccc2O[C@H]1CN(C)S(C)(=O)=O	-5
O=C(CSC1CC(=O)N(c2ccc(Cl)cc2)C1=O)Nc1cccc(F)c1 (stereo unspecified)	14
COc1ccc([N+](=O)[O-])cc1NC(=O)C1(c2ccc(OC)c(OC)c2)CCOCC1	14
COc1ccc(CN(CCN(C)C)c2ncccn2)cc1	7
Cc1noc(C)c1NC(=O)N(C)C[C@H]1Oc2ccc(NC(=O)Nc3ccc(F)cc3)cc2CC(=O)N([C@@H](C)CO)C[C@@H]1C	-2
O=C(CN1C(=O)COc2ccc(Cl)cc21)N1CCCC1	-7
COc1cccc(C(Nc2cc(C)ccn2)c2ccc3ccc(C)nc3c2O)c1 (stereo unspecified)	97*
O=C(O)CCCC(=O)Nc1ccc(O)cc1	31
COc1ccc(N2C(=O)Cc3ccc(OC)cc3C2=O)cc1	120*
C[C@@H]1CN([C@H](C)CO)C(=O)c2cc(NC(=O)C3CCCCC3)ccc2O[C@@H]1CN(C)Cc1ccncc1	24
COc1ccc(NC(=O)Nc2cccc3c2O[C@H](CN(C)Cc2ccc(-c4ccccc4)cc2)[C@H](C)CN([C@H](C)CO)C3=O)cc1	40
C[C@@H]1CN([C@H](C)CO)C(=O)Cc2cc(NS(=O)(=O)c3cccs3)ccc2O[C@H]1CN(C)CC1CCCCC1	12
O=C(Nc1ccccc1C(F)(F)F)C1Sc2nnc(-c3ccccc3)n2NC1c1ccc(F)cc1 (stereo unspecified)	48
C[C@@H]1CN([C@@H](C)CO)C(=O)c2cc(NC(=O)Nc3ccc(F)cc3)ccc2O[C@@H]1CN(C)S(=O)(=O)c1ccc(Cl)cc1	14
